# Compound activity deposited in PubChem BioAssay by several laboratories.
# Mtb H37Rv – M. tuberculosis H37Rv growth inhibitors, H37Rv strain (AID 1626) | one-dose inhibition, % at 10 µM; IC50 in µM for titrated hits | M. tuberculosis H37Rv growth inhibition; higher % means a stronger effect | 0.95% of 220,000 active;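 active = confirmed in a dose series; inconclusive = inhibition above 80% but not taken into the dose series; inactive = below 80% or under 30% at every dose of the series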;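 also: bacteria incubated seven days before Alamar blue readout; 0% = bacteria only wells and 100% = bacteria with antibiotic wells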
# RecA intein inh – inhibitors of M. tuberculosis RecA intein splicing. P9WHJ3. cell-free RecA intein splicing, fluorescence. inhibition, %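 (about 9 µM by stock and volumes)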. 0.75% of 290,000 active. AID 2221; in the data active = inhibition above about 30%; inconclusive = no clear call, values can overlap the other calls;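 also: 0% = vehicle wells and 100% = reference inhibitor control wells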
# Target sequence (P9WHJ3 whole entry, looked up): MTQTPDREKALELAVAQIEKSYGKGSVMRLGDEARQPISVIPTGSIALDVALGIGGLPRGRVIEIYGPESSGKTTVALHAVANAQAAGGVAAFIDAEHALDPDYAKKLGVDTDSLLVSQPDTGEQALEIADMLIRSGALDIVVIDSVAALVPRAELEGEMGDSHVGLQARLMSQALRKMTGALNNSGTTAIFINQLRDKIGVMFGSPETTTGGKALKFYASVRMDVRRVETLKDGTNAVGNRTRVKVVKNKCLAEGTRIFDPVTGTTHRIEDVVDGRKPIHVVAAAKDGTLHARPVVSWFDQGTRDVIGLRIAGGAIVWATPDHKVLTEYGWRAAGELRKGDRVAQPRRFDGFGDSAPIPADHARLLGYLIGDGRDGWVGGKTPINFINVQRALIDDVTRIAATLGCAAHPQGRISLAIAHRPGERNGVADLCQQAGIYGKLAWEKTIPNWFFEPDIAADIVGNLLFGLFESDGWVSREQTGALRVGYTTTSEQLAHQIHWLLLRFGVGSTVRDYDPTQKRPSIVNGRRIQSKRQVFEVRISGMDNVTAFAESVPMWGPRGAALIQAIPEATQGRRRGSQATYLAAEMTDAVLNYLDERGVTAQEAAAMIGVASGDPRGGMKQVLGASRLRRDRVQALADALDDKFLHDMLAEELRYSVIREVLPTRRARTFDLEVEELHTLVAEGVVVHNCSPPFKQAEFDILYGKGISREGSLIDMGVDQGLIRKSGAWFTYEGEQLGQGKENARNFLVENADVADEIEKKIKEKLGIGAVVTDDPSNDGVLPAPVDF
# Mtb bLac sens – beta-lactam sensitization of Mtb H37Rv; M. tuberculosis H37Rv growth with meropenem, percent inhibition; hits of this screen are not shown here; inhibition, % at 25 µM; 0.27% of 330,000 active;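 active = about 74% or more and at least 40 points above the plate without the antibiotic, then above 30% in a dose series; inconclusive = first-round hits that could not be retested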;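 also: growth measured after seven days incubation then overnight dye step; 0% = bacteria only wells and 100% = bacteria with antibiotic; twin plates without the antibiotic show which effects depend on it; some results filed as inactive read as strong as hits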
# YopH PTP inh – inhibitors of Yersinia enterocolitica YopH tyrosine phosphatase; 0.16% of 140,000 active; inhibition, %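 (about 10 µM by stock and volumes)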; fluorescence Ex485/Em525;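 active = inhibition of 50% or more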;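 also: controls were vehicle for no effect and minimum signal wells for full effect; inactives centre near -20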
# Arbovirus anti – blocks arbovirus infection; inhibition, % at 10 µM; arbovirus infection cell-based antiviral screen; 0.37% of 200,000 active;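 active = inhibition from about 30%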;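 also: bluetongue infection of BSR cells; cell survival read as ATP light after 72 h; 0% = infected wells without compound and 100% = uninfected wells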
# The depositor's hits bear a star; ? = inconclusive; / = no result given; & = joins results of further samples.
# A first look (2 entries):
SMILES,Mtb H37Rv,RecA intein inh,Mtb bLac sens,YopH PTP inh,Arbovirus anti
COc1ccc(C(=O)NCc2ccc(OCCN(C)C)cc2)cc1OC,-12%,-1.6,6,/,/
CCN(CC)CCNC(=O)c1cc(Cl)c(N)cc1OC,0%,-2.4,2,-31,-5

# Main list, previewed entries included:
SMILES,Mtb H37Rv,RecA intein inh,Mtb bLac sens,YopH PTP inh,Arbovirus anti
COc1ccc(C(=O)NCc2ccc(OCCN(C)C)cc2)cc1OC,-12%,-1.6,6,/,/
CCN(CC)CCNC(=O)c1cc(Cl)c(N)cc1OC,0%,-2.4,2,-31,-5
O=C(CCNNC(=O)c1ccncc1)NCc1ccccc1,?,-0.8,96,-22,-5
OCCN1CCN(CCCN2c3ccccc3Sc3ccc(Cl)cc32)CC1,7%,0.1,47,-10,-44
Cc1c(NC(=O)c2cccnc2)c(=O)n(-c2ccccc2)n1C,-10%,0.6,-3,/,/
CN1CCOC(c2ccccc2)c2ccccc2C1 (configuration not stated),/,0.3,-6,/,/
CN(C)CCOC(C)(c1ccccc1)c1ccccn1 (configuration not stated),-1%&2%,1.6,-4,-30,3&10
CC(=O)NC(Cc1ccccc1)C(=O)O (configuration not stated),-11%,0.4,1,-28,11
CC1(C)Cc2c(sc(NC(=S)NC(=O)c3ccccc3)c2C(=O)O)CO1,-4%,0.3,-12,/,16
OC(C#CCN1CCCC1)(c1ccccc1)c1ccccc1,/,0.7,6,/,/
NC(=O)c1cn(Cc2c(F)cccc2F)nn1,/,1.5,0,/,/
Cc1cc(-c2ccccc2)nnc1NCCN1CCOCC1,-6%,-0.1,-3,-38,14
Cc1cc(Nc2cc(N3CCN(C)CC3)nc(Sc3ccc(NC(=O)C4CC4)cc3)n2)n[nH]1,-4%,-3.9,-2,/,/
CN1CCN(CCC(=O)N2c3ccccc3Sc3ccc(C(F)(F)F)cc32)CC1,6%,0.2,-15,-2,0
CCOc1ccc(NC(=O)Cn2cc(C(=O)c3ccco3)c3ccccc32)cc1,-2%,/,4,-8,4
CC12CCC(CC1)C(C)(C)O2,-3%,-1.1,-2,/,/
COc1ccc(/C=C/C(=O)Nc2ccccc2C(=O)O)cc1OC,-3%&-2%,1.9,3,-35,58*
C=CC1=C(C(=O)O)N2C(=O)[C@@H](NC(=O)/C(=N\O)c3csc(N)n3)[C@H]2SC1 (stereo in doubt),-3%,-2.3,75,/,/
O=C(CCN1CCC(c2ccccc2)C1)c1ccc2c(c1)OCCO2 (configuration not stated),-7%,1.4,92,-34,-45
COc1cc2c(c(OC)c1OC)-c1c(cc3c(c1OC)OCO3)[C@@H](OC(C)=O)[C@H](C)[C@H](C)C2,2%,7.3,-10,/,/
O=C(NCCc1c[nH]c2ccccc12)c1cccnc1,5%,-0.8,5,-41,2
O=S(=O)(c1cccc2cnccc12)N1CCCNCC1,-8%,-0.8,-4,-48,11
c1ccc(CC2=NCCN2)cc1,-6%,2.6,-10,17,9
Cc1nc2ccccn2c(=O)c1CCN1CCC(C(=O)c2ccc(F)cc2)CC1,-12%,0.1,1,-18,-2
NC(=O)c1cccc(-c2cc(Nc3ccc(OC(F)(F)F)cc3)ncn2)c1,?,-1.2,97,/,/

# Arranged by SMILES length (falling): 16 of the compounds above.
SMILES,Mtb H37Rv,RecA intein inh,Mtb bLac sens,YopH PTP inh,Arbovirus anti
COc1cc2c(c(OC)c1OC)-c1c(cc3c(c1OC)OCO3)[C@@H](OC(C)=O)[C@H](C)[C@H](C)C2,2%,7.3,-10,/,/
C=CC1=C(C(=O)O)N2C(=O)[C@@H](NC(=O)/C(=N\O)c3csc(N)n3)[C@H]2SC1 (stereo in doubt),-3%,-2.3,75,/,/
Cc1cc(Nc2cc(N3CCN(C)CC3)nc(Sc3ccc(NC(=O)C4CC4)cc3)n2)n[nH]1,-4%,-3.9,-2,/,/
CN1CCN(CCC(=O)N2c3ccccc3Sc3ccc(C(F)(F)F)cc32)CC1,6%,0.2,-15,-2,0
CCOc1ccc(NC(=O)Cn2cc(C(=O)c3ccco3)c3ccccc32)cc1,-2%,/,4,-8,4
O=C(CCN1CCC(c2ccccc2)C1)c1ccc2c(c1)OCCO2 (configuration not stated),-7%,1.4,92,-34,-45
COc1ccc(/C=C/C(=O)Nc2ccccc2C(=O)O)cc1OC,-3%&-2%,1.9,3,-35,58*
OC(C#CCN1CCCC1)(c1ccccc1)c1ccccc1,/,0.7,6,/,/
O=C(CCNNC(=O)c1ccncc1)NCc1ccccc1,?,-0.8,96,-22,-5
Cc1cc(-c2ccccc2)nnc1NCCN1CCOCC1,-6%,-0.1,-3,-38,14
CN(C)CCOC(C)(c1ccccc1)c1ccccn1 (configuration not stated),-1%&2%,1.6,-4,-30,3&10
NC(=O)c1cn(Cc2c(F)cccc2F)nn1,/,1.5,0,/,/
CN1CCOC(c2ccccc2)c2ccccc2C1 (configuration not stated),/,0.3,-6,/,/
CC(=O)NC(Cc1ccccc1)C(=O)O (configuration not stated),-11%,0.4,1,-28,11
CC12CCC(CC1)C(C)(C)O2,-3%,-1.1,-2,/,/
c1ccc(CC2=NCCN2)cc1,-6%,2.6,-10,17,9

# Continued.
SMILES,Mtb H37Rv,RecA intein inh,Mtb bLac sens,YopH PTP inh,Arbovirus anti
O=C(c1ccc(F)cc1)C1CCN(CCn2c(=O)[nH]c3ccccc3c2=O)CC1,-6%,-0.7,-2&-6,/,/
COc1ccccc1N1CCN(CCCNc2cc(=O)n(C)c(=O)n2C)CC1,-8%&-2%,0.5,0,/,8
c1ccc(CN(CC2=NCCN2)c2ccccc2)cc1,-7%&-8%,-1.4&-0.9,2&-7,-40&-34,10&-3
CC(COc1ccccc1)NC(C)C(O)c1ccc(O)cc1 (configuration not stated),-7%,-0.4,1,-19,7
CCN(CC)CCOC(=O)C1(c2ccccc2)CCCC1,5%,-1.8,5,7,8
CCCn1cnc2c1c(=O)n(CCCCC(C)=O)c(=O)n2C,0%,-1.8,-5,/,/
CCC(C)n1ncn(-c2ccc(N3CCN(c4ccc(OCC5COC(Cn6cncn6)(c6ccc(Cl)cc6Cl)O5)cc4)CC3)cc2)c1=O (configuration not stated),73%&49%,-1.5,1,/,-18
CC[N+](C)(CC)CCOC(=O)C(O)(c1ccccc1)C1CCCCC1 (configuration not stated),-9%,-0.6,0,-28,20
CCOc1ccc(C(=O)OCCN(CC)CC)cc1,-5%,1.7,-2,11,7
C[C@]12CCC(=O)C=C1CC[C@@H]1[C@@H]2CC[C@@]2(C)[C@H]1CC[C@]2(O)C(=O)CO,15%,0.2,-2,-33,13
Oc1ccc(/C=C/c2cc(O)cc(O)c2)cc1,1%,7.2,7,-30,3

# Only part of the results is shown, so the mix of outcomes need not match the whole.
